Source: PubChem (several laboratories)
UUG fidelity: alters start codon recognition fidelity in yeast | S. cerevisiae UUG-firefly luciferase reporter, luminescence/redox ratio | activity score, % at 18.7 µM | 0.13% of 350,000 active;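 active = replicate mean at a twofold rise or more, about +100% in these data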;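 note: firefly luciferase made from a UUG start codon reports start codon fidelity; reporter light over untreated wells divided by growth signal over untreated wells; some hits fall short of that in this replicate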
CSC inhib: blocks cancer stem cells; cancer stem cell-like cells viability, luminescence; inhibition, % at 7.5 µM; 1.1% of 300,000 active;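 active = mean at 75% or more and at least half the replicates too; inconclusive = mean and replicates disagree; tested in HMLE shEcad cells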;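 note: 0% = median of negative and 100% = median of positive control wells; the first replicate is given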
HIV Env fusion: HIV envelope-mediated fusion inhibition; 1.1% of 360,000 active; AID 651610; inhibition, % at 12.3 µM; HeLa-JRFL Env/CEM21 cell fusion, luciferase;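 active = mean replicate inhibition score of at least 50 and every replicate individually at or above 50; inconclusive = only one of the two criteria met; inactive = mean below 50 and not all replicates reaching 50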;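 note: 0% = plate neutral controls and 100% = maraviroc near 300 nM; one replicate is shown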
Rce1 inh: yeast Ras-converting enzyme inhibition; calls only; 0.27% of 290,000 active; yeast membranes, quenched prenylated peptide cleavage fluorescence; Q03530;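 active = fall in fluorescence gain of 50% or more versus controls, with final raw signal at or below 3038400; inconclusive = same 50% fall but final raw signal above 3038400; inactive = fall in fluorescence gain under 50%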;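 note: plate controls were neutral control wells for no effect and wells lacking membranes for full effect; tested at 10 µM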
Target sequence (Q03530 whole entry, looked up): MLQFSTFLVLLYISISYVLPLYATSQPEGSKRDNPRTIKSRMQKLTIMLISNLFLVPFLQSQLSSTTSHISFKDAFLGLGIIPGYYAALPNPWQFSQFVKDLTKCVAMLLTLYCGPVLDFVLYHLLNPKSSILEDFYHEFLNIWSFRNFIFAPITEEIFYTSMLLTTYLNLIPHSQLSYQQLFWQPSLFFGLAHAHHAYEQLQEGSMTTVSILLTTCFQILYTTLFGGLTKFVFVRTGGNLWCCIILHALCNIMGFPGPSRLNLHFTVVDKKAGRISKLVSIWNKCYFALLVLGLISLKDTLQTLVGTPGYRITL
eIF4H inh: inhibitors of RNA binding by human eIF4H. inhibition, % at 35 µM. 0.94% of 290,000 active. eIF4H fluorescence polarization binding assay. Q15056;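 active = 50% or more with normal probe brightness, or confirmed in later tests; inconclusive = above 50% with abnormal brightness, or retests that disagree; inactive = below 50% or failed in later tests; about a fifth of its hits are not listed in these tables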;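 note: calls also rest on retests at 20 µM and on dose response follow-up; 0% = protein and probe with vehicle and 100% = probe without protein; strong numbers were not always called active; many hits fall short of the cut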
MT1-MMP act inh: blocks activation of human MT1-MMP; AID 651647; HT1080 RFP-PRO-GFP cells, GFP/RFP ratio fluorescence, overnight; percent of plate control window, DMSO zero; 0.061% of 360,000 active; P50281; GFP/RFP ratio change, % at 20 µM;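 active = GFP/RFP ratio change of at least 30% with cell ATP level not reduced by more than half and red fluorescence within 50% of control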; note: strong numbers were not always called active
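Assay system: HT1080 RFP-PRO-GFP cells. Benchmarks: DMSO vehicle wells and RFP-L50D-GFP reporter cell wells. Times: overnight cell settling, then overnight compound exposure, 37 °C, 5% CO2. Compound: 20 µM single dose, 1% DMSO. Read-out basis: GFP/RFP fluorescence ratio.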
PABP polyA inh: PABP-poly(A) binding inhibition; inhibition, % at 35 µM; 1% of 290,000 active; PABP-poly(A) RNA binding, fluorescence polarization; AID 2014; P11940;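 active = 50% or more with normal probe brightness, or confirmed in later tests; inconclusive = above 50% with abnormal brightness, or retests that disagree; inactive = below 50% or failed in later tests; about a fifth of its hits are not listed in these tables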;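 note: calls also rest on retests at 20 µM and on dose response follow-up; controls were probe without protein and protein plus probe with vehicle; some compounds called inactive have numbers as strong as hits; many hits fall short of the cut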
eIF4H inh retest: second read-out of eIF4H inh, no call of its own (marks repeat the call); inhibition, %; compound at 20 µM; confirmation average;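 mean of two retest wells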
PABP polyA inh retest: recorded beside PABP polyA inh, whose call it bears; inhibition, %; compound at 20 µM; confirmation repeats;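 mean of two retest wells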
MT1-MMP act inh RFP: recorded beside MT1-MMP act inh, whose call it bears; RFP signal change, %; measured here: RFP expression control read;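 0 = vehicle wells; hits needed this value within 50% of zero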
Active calls of the source: *; i = inactive; ? = inconclusive; / = no result given. These rows are one share of the data, so the mix of outcomes need not match the whole.

SMILES	UUG fidelity	CSC inhib	HIV Env fusion	Rce1 inh	eIF4H inh	MT1-MMP act inh	MT1-MMP act inh RFP	PABP polyA inh	others
N#CC1(C#N)[C@@H](C(=O)C23CC4CC(CC(C4)C2)C3)C12CCOCC2	/	-9.4	16.9	i	1.9	-3.0	0.2	3.0
O=C(Nc1nnc([C@@H]2C[C@H](O)[C@@H](CO)O2)s1)c1cccs1	-7.2	/	-19.8	/	/	0.6	3.0	/
Cc1c(-c2c(C#N)c(N)nc3c2CCCCCC3)cnn1C	-6.1	12.8	/	i	-0.5	2.9	12.5	5.2
O=C(CCc1ccccc1)OCCOC(=O)CCc1ccccc1	-7.3	-17.7	11.6	i	-13.0	1.8	1.2	-6.7
CCn1cc(C2C(C(=O)Nc3cc(C)ccn3)=C(C)NC3=C2C(=O)CC(C)(C)C3)c(C)n1 (centres undefined)	/	/	7.2	i	11.3	-2.8	1.3	-1.1
O=[N+]([O-])c1c(Nc2ccc(O)cc2)cc(Cl)c2nonc12	-20.1	91.3*	-324.0	i	9.4	-4.9	-18.7	4.1
Cc1ccc(NC(=O)Cc2nnc(SCC(=O)NC3CCCC3)n2C)cc1	-9.0	-0.3	-7.0	i	-2.4	2.6	2.6	4.9
COc1ccc(S(=O)(=O)Oc2c(OC)cc(C(=S)N3CCOCC3)cc2OC)cc1	-14.2	-15.6	-4.0	i	-1.6	0.1	1.1	4.1
CCCS(=O)(=O)NC(=O)C1(C)CCCN(C(=O)COc2ccc(Cl)cc2Cl)C1 (centres undefined)	5.0	/	2.5	/	/	7.5	6.0	/
O=C(COC(=O)c1ccccc1NCCO)Nc1cc(C(F)(F)F)ccc1N1CCOCC1	-10.1	8.4	27.2	i	3.5	1.8	-4.3	4.0
COc1ccc(-c2csc(NC(=O)C3COc4ccccc4O3)n2)cc1OC (centres undefined)	17.7	35.1	-14.3	i	-3.9	0.9	-4.5	1.6
O=C(NC(=S)N1CCCCCC1)c1ccccc1Cl	/	-5.4	0.0	i	-4.0	-2.1	0.2	-6.4
O=C(NC1CCCC1)C(c1ccccn1)N(C(=O)c1csnn1)c1ccc(F)cc1 (centres undefined)	-13.0	2.4	19.7	i	-4.2	-0.4	5.2	1.5
O=[N+]([O-])c1ccc(/C=N\N2CCN(Cc3ccccc3Cl)CC2)cc1	-11.8	/	25.8	/	/	4.1	-1.6	/
CCc1cc(CNC(=O)C2CCC(=O)N(Cc3ccccc3F)C2)on1 (centres undefined)	-9.6	/	3.3	/	/	1.4	4.0	/
O=C(C1CCCCC1)N1CCC2CC1c1cc(N3CCCCC3)ccc12 (centres undefined)	-2.3	/	-1.6	/	/	-2.5	-6.7	/
CCC(=O)N1CCC1(C)C(=O)NCc1ccccc1SC (centres undefined)	-20.6	/	-15.2	/	/	0.5	2.7	/
CCOC(=O)c1cnc(SCC(=O)Nc2nc(C)c(C)s2)nc1N	/	-0.6	-22.5	i	-12.2	-5.2	-7.7	-5.2
CCN=C1S/C(=C/c2ccc(-c3ccc(F)cc3)o2)C(=O)N1CC	-15.2	26.7	20.6	i	-0.4	-1.4	-2.3	4.6
COc1ccc(-c2n[nH]c(=S)n2Cc2ccccc2)cc1	-10.0	-14.0	4.9	i	2.4	1.6	-3.6	1.4
Cc1ccccc1C(=O)Nc1ccnn1C1CCN(Cc2ccc(CO)o2)CC1	-5.1	4.8	-1.2	i	2.5	2.6	4.9	1.3
Cn1cc(/C=N/Nc2ccccc2)c2ccccc21	/	-7.0	24.1	i	-0.5	-5.2	-3.0	5.3
CCN1CCN(CCNC(=O)Cn2c(=O)c3cccn3c3ccc(F)cc32)CC1	-13.2	7.7	8.2	i	-4.6	0.5	1.2	-4.7
Cc1ccc(CNC(=O)CN(c2ccc(C)cc2)S(=O)(=O)c2c(C)n[nH]c2C)cc1	-15.7	15.2	3.5	i	-2.9	-3.7	-1.7	11.1
CCO[C@H]1OC(C(=O)NCc2ccccc2)=C[C@@H](C2CC2)[C@@H]1CCCO	6.0	-2.4	-42.6	i	-5.3	1.2	2.1	-1.8
SMILES	UUG fidelity	CSC inhib	HIV Env fusion	Rce1 inh	eIF4H inh	MT1-MMP act inh	MT1-MMP act inh RFP	PABP polyA inh	others
CC(C)c1ccc(C2c3[nH]c4ccccc4c3C[C@H]3C(=O)N(c4ccccc4C(=O)N4CCC[C@H]4C(=O)O)C(=O)N23)cc1 (some centres undefined)	-5.8	-4.7	/	i	-9.2	3.7	-1.2	-0.1
CCC(=O)N1CCN(c2ccc(Cl)cc2NC(=O)c2ccc([N+](=O)[O-])o2)CC1	-30.7	28.2	41.9	i	5.8	6.4	-7.5	-1.8
O=C(O)c1ccc(-n2ncc3c2/C(=C\c2cccc([N+](=O)[O-])c2)CC3)cc1	5.3	/	13.7	/	/	4.3	2.2	/
COc1ccc(-c2cc(CC3(C(=O)O)CCN(C(=O)OC(C)(C)C)CC3)on2)c(OC)c1	30.2	-5.6	-2.6	i	5.2	-2.4	4.0	6.7
CC(=O)NCC1COc2ccccc2O1 (centres undefined)	-26.2	10.7	-26.3	i	-11.6	-1.3	0.8	-2.2
COc1ccc(/C(N)=N/OC(=O)Cc2ccccc2)cc1	/	14.7	-51.2	/	-5.4	5.1	0.6	4.9
CCN(CC)c1ccc(/C=N/NC(=O)c2ccc3c(c2)OCCO3)cc1	-3.1	/	/	i	-9.9	-1.0	-0.3	-8.2
Fc1ccc2cc(-c3ccsc3)ncc2c1	-15.2	-8.1	-160.1	/	/	3.9	0.7	/
O=C(COc1ccccc1)Nc1ccc2c(c1)nc1n2CCOC1	-16.7	-8.9	-40.0	i	-9.0	2.7	3.5	-3.0
O=S(=O)(Nc1ccc(-c2cnco2)cc1)c1ccccc1	/	-8.8	-8.5	i	54.4	0.0	-1.3	13.4	eIF4H inh retest=13.7;PABP polyA inh retest=30.3
CN=c1scc(C)n1/N=C/c1ccc(O)c(O)c1O	-21.9	1.8	-0.7	i	94.7	-8.3	-3.5	37.9	eIF4H inh retest=3.9;PABP polyA inh retest=49.9
O=C(/C=C/c1ccc(F)cc1)c1ccccc1Br	/	108.4*	-104.3	i	-1.4	-16.3	-23.5	-11.9
COc1ccc(C(=O)Nc2cccc(S(=O)(=O)NC3=NCCC3)c2)cc1OC	/	9.9	-13.1	/	/	1.9	1.7	/
Cc1ccc(S(=O)(=O)N2CCN(C(=O)CSC3CCCC3)CC2)c(C)c1	/	-5.4	-7.8	i	6.1	-3.9	-5.8	-7.5
CCOC(=O)C1CCCN(C(=O)Nc2ccccc2)C1 (centres undefined)	-16.6	5.0	19.2	i	-1.9	3.1	6.0	-5.9
O=C(CSc1nnnn1-c1ccccc1)c1ccc(O)cc1O	-3.7	12.7	-2.7	i	10.5	-0.3	0.4	2.5
CC1CCN(S(=O)(=O)c2ccc(NC(=O)CCN3C(=O)c4ccccc4C3=O)cc2)CC1	/	-5.4	/	i	-1.3	3.3	-6.5	-0.7
COc1ccccc1NC(=O)Nc1nc2ccc(S(N)(=O)=O)cc2s1	-19.6	9.2	-69.8	i	?	0.5	3.6	?
Cc1ccccc1C(=O)Nc1ccc(N2CCN(C)CC2)nc1	/	6.9	?	i	31.7	-3.3	1.6	6.5
COc1cc(C=O)ccc1OCC(=O)N1CCCC1	/	-3.5	-10.8	i	-3.2	-0.7	2.9	-1.0
C#CCOCCOCCOCCNc1nc(N2CCN(C(=O)[C@H](CCCCN)n3cc([C@@H](N)CC(C)C)nn3)CC2)nc(N2CCN(C(=O)[C@H](Cc3cc4ccccc4[nH]3)n3cc([C@@H](N)Cc4ccc(O)cc4)nn3)CC2)n1	7.5	5.3	/	i	18.8	-1.5	4.0	?
CN(Cc1ccccc1)C(=O)c1ccccc1N(C)S(=O)(=O)c1ccccc1	-8.7	/	-1.8	/	/	0.1	2.3	/
CN(C)/C=N/C(=S)Nc1ccccc1Cl	-18.6	-14.5	28.1	i	2.5	1.6	3.6	-1.5
Cn1c(SCc2nnc(-c3ccccc3)o2)nc2ccccc21	/	12.4	-3.1	i	-3.0	-2.1	0.1	9.6
Cc1ccc(C(=O)NNC(=O)c2cc3cc4ccccc4nc3s2)cc1	/	-9.6	/	i	8.0	4.2	3.9	-11.3
SMILES	UUG fidelity	CSC inhib	HIV Env fusion	Rce1 inh	eIF4H inh	MT1-MMP act inh	MT1-MMP act inh RFP	PABP polyA inh	others
CCOc1ccc(NC(=O)CSc2n[nH]c(N)n2)c([N+](=O)[O-])c1	-10.0	0.7	16.3	i	2.4	8.2	1.7	13.9
Cc1cc([N+](=O)[O-])c(C(C)(C)C)cc1N	-22.5	-16.1	/	i	-9.2	6.4	5.1	-19.4
CCCN1CNC(=S)N(c2cccc(C)c2C)C1	3.7	-4.4	-13.8	i	75.1	1.9	1.3	1.5	eIF4H inh retest=25.3;PABP polyA inh retest=6.9
Cn1c(-c2ccccc2)cc(=O)c2ccccc21	-10.6	6.3	-39.5	i	-5.6	-0.5	1.4	-1.5
CCOC(=O)CCSCC(=O)Nc1nnc(C)s1	-16.3	-3.4	13.3	i	2.3	1.0	0.5	4.8
COc1ccc(S(=O)(=O)Nc2ccccc2N2CCOCC2)cc1OC	-8.9	/	6.9	/	/	0.4	-1.2	/

In the list so far, these have fluorine:
SMILES	UUG fidelity	CSC inhib	HIV Env fusion	Rce1 inh	eIF4H inh	MT1-MMP act inh	MT1-MMP act inh RFP	PABP polyA inh	others
O=C(COC(=O)c1ccccc1NCCO)Nc1cc(C(F)(F)F)ccc1N1CCOCC1	-10.1	8.4	27.2	i	3.5	1.8	-4.3	4.0
O=C(NC1CCCC1)C(c1ccccn1)N(C(=O)c1csnn1)c1ccc(F)cc1 (centres undefined)	-13.0	2.4	19.7	i	-4.2	-0.4	5.2	1.5
CCc1cc(CNC(=O)C2CCC(=O)N(Cc3ccccc3F)C2)on1 (centres undefined)	-9.6	/	3.3	/	/	1.4	4.0	/
CCN=C1S/C(=C/c2ccc(-c3ccc(F)cc3)o2)C(=O)N1CC	-15.2	26.7	20.6	i	-0.4	-1.4	-2.3	4.6
CCN1CCN(CCNC(=O)Cn2c(=O)c3cccn3c3ccc(F)cc32)CC1	-13.2	7.7	8.2	i	-4.6	0.5	1.2	-4.7
Fc1ccc2cc(-c3ccsc3)ncc2c1	-15.2	-8.1	-160.1	/	/	3.9	0.7	/
O=C(/C=C/c1ccc(F)cc1)c1ccccc1Br	/	108.4*	-104.3	i	-1.4	-16.3	-23.5	-11.9
